Screening data deposited in PubChem BioAssay by several laboratories.
VCAM-1 inhibition: inhibitors of TNFa-induced VCAM-1 surface display, cell-based, plate reader, pooled HUVEC, TNFa stimulus (AID 454) | HUVEC TNFa-induced VCAM-1 surface immunofluorescence, plate reader; numbers were filed only for top-ranked candidate wells | inhibition, % at 5 µM | 10,000 tested, 0.2% active;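 active means compound among top-ranked inhibitors of TNF-induced VCAM-1 adhesion protein staining, with the hit upheld by image or statistical review; inactive means the rest, including hits rejected on review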;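 further: 0% = TNFa with vehicle and 100% = cells without TNFa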
VCAM-1 imaging: inhibitors of TNFa-induced VCAM-1 surface display, imaging, high-content imaging, pooled HUVEC, TNFa stimulus (AID 456) | HUVEC TNFa-induced VCAM-1 surface expression, immunofluorescence imaging; numbers were filed only for top-ranked candidate wells | inhibition, % at 5 µM; hits with a dose series show IC50 in µM | 10,000 tested, 0.2% active;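 active means top tenth filtered wells with inhibition above zero that passed visual or statistical confirmation; inactive means the rest, including hits rejected on review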;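 further: 0% = stimulated vehicle wells and 100% = unstimulated cells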
FPRL1 binder: ligands of human FPRL1, also counter-screen for FPR ligands; AID 441; inhibition, %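 (tested at 6.7 µM)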; P25090; FPRL1-expressing cells, fluorescent ligand binding inhibition, flow cytometry; 24,000 tested, 0.3% active;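 further: 0% = buffer alone and 100% = receptor blocker peptide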
Target sequence (P25090 whole entry, looked up): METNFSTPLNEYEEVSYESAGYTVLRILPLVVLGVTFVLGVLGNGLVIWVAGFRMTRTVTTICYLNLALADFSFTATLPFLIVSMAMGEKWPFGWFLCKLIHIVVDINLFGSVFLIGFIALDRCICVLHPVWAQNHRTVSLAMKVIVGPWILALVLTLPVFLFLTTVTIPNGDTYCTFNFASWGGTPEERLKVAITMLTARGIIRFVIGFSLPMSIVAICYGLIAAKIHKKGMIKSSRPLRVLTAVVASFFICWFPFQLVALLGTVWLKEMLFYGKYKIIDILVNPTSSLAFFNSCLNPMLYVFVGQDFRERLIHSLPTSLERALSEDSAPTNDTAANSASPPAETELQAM
FPR ligand: human FPR ligand, with FPRL1 counter-screen; P21462; FPR-expressing cells, fluorescent ligand binding, flow cytometry; inhibition, %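 (tested at 6.7 µM)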; 24,000 tested, 0.74% active; AID 440;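 further: 0% = buffer wells and 100% = receptor blocker peptide wells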
Target sequence (P21462 whole entry, looked up): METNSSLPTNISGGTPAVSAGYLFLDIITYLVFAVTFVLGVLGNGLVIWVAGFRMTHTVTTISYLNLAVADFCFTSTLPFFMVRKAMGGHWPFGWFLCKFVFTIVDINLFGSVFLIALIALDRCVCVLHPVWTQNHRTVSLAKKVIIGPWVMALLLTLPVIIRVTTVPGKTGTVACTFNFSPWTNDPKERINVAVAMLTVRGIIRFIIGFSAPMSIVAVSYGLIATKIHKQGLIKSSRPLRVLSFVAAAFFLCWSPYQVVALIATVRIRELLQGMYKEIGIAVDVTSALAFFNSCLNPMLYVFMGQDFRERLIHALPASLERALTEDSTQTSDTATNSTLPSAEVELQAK
VCAM-1 up imaging: enhancers of VCAM-1 display on endothelial cells, imaging, high-content imaging, pooled HUVEC, TNFa stimulus (AID 457); 10,000 tested, 0.2% active; Pooled HUVEC, TNFa-induced VCAM-1 immunofluorescence imaging; hits of this screen are not shown here; calls only;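 active means a top-ranked rise in VCAM-1 staining upheld on image or statistical review; inactive means the rest, including candidates rejected on review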;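 further: compounds tested at 5 µM in the well; cells exposed to compound for 24 hours before fixing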
The depositor's hits bear a star; i = inactive; u = inconclusive; x = no result given.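 How the source made its calls, unless noted: active means mean above 30%; inconclusive means self-fluorescent; inactive means the rest.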 The list is partial. The share of hits here may be higher or lower than overall.

cpd	SMILES	VCAM-1 inhibition	VCAM-1 imaging	FPRL1 binder	FPR ligand	VCAM-1 up imaging
1	Cc1ccc(S(=O)(=O)NCC(=O)NC2CCCC2)cc1	x	x	-2	6	x
2	CCCC(=O)Nc1cc(-c2nnc(OC)c3ccccc23)ccc1N1CCOCC1	i	i	0	4	i
3	COc1ccc(OC)c2[nH]c(=O)c(CCNC(=O)CC(C)C)cc12	i	i	4	-2	i
4	CCOC(=O)CSCc1nc(-c2ccc(Cl)cc2)oc1C	x	x	-1	-5	x
5	Cc1nc2ccc(NC(=O)N3CCOCC3)cc2s1	i	i	-3	0	i
6	CC(C)(Oc1ccc(CCNC(=O)c2ccc(Cl)cc2)cc1)C(=O)O	i	i	-1	1	i
7	CCOCCCNC(=O)c1cn(CC(C)C)c(=O)c2cc(OC)c(OC)cc12	x	x	-1	-1	x
8	COc1ccc(CNC(=O)C2CCCN(c3nc4ccccc4o3)C2)c(OC)c1 (centres undefined)	x	x	1	-1	x
9	O=C(Nc1ccc(S(=O)(=O)N2CCCCCC2)cc1)c1ccco1	i	i	-2	1	i
10	COc1cc(OC)c(C2CC(=O)N3CN(C)CSC3=C2C#N)cc1OC (centres undefined)	x	x	1	-5	x
11	CCOC(=O)CN(C)Cc1c[nH]c2ccccc12	i	i	0	0	i
12	COc1ccc(C2CC(=O)C(C=NCCCN3CCOCC3)=C(O)C2)cc1 (centres undefined)	i	i	-6	0	i
13	CC1(C)N=C(N)N=C(N)N1c1ccc(F)cc1F	x	x	2	-6	x
14	Cn1c(C(=O)O)c(CC(=O)Nc2ccc3c(c2)OCCO3)c2ccccc21	x	x	6	0	x
15	Cn1c(Cn2c(=O)sc3ccccc32)nnc1SCC(=O)NCc1ccc2c(c1)OCO2	x	x	11	1	x
16	c1ccc(C2COC(c3cccs3)=N2)cc1 (centres undefined)	x	x	4	-4	x
17	O=C(c1cnc(N2CCN(c3ncccn3)CC2)c2ccccc12)N1CCN(c2ccccn2)CC1	x	x	0	-9	x
18	COc1ccc(OC)c(-c2cc(C(=O)Nc3c(C)n(C)n(-c4ccccc4)c3=O)no2)c1	x	x	7	1	x
19	CCOC(=O)c1[nH]nc(-c2c(O)cc(C)cc2O)c1-c1csc(C)n1	i	i	2	-5	i
20	c1ccc(-c2nnc(OCCN3CCOCC3)c3ccccc23)cc1	i	i	2	-2	i
21	Cn1cccc1Cc1nnc(SCC(=O)N2CCOCC2)n1CCc1ccccc1	x	x	-2	-4	x
22	COc1ccc(N2CCN(CCCNC(=O)CN3CCN(Cc4ccccc4C)C3=O)CC2)cc1	x	x	7	-7	x
23	CCN(C(=O)c1cc(Cl)ccc1OC)c1ccccc1	i	i	5	4	i
24	CCOc1ccc(N(CC(=O)Nc2cccc(OC)c2)S(=O)(=O)c2c(C)noc2C)cc1	i	i	1	2	i
25	COc1ccccc1-c1nnc(SCC(=O)N2CC(C)CC(C)C2)o1 (centres undefined)	i	i	-1	2	i
26	COc1ccc(NC(=O)CSc2nc3c(c(=O)n2-c2ccccc2OC)SCC3)cc1	i	i	-2	0	i
27	Nc1cc(OC(=O)c2cccs2)nn1S(=O)(=O)c1ccccc1	x	x	-2	4	x
28	Cc1ccc(N(Cc2ccco2)C(=O)c2cccc(S(=O)(=O)N(C)C)c2)cc1	i	i	-8	2	i
29	O=C(CSc1nc2ccccc2[nH]1)N1CCCCC1	i	i	-1	2	i
30	O=C(CSc1ncnc2c1oc1ccccc12)Nc1ccccc1C(F)(F)F	i	i	-2	-3	i

Arranged by molar mass (falling): 3 of the compounds above
cpd	SMILES	VCAM-1 inhibition	VCAM-1 imaging	FPRL1 binder	FPR ligand	VCAM-1 up imaging
21	Cn1cccc1Cc1nnc(SCC(=O)N2CCOCC2)n1CCc1ccccc1	x	x	-2	-4	x
2	CCCC(=O)Nc1cc(-c2nnc(OC)c3ccccc23)ccc1N1CCOCC1	i	i	0	4	i
23	CCN(C(=O)c1cc(Cl)ccc1OC)c1ccccc1	i	i	5	4	i

Fetched by compound from the entries so far:
cpd	SMILES	VCAM-1 inhibition	VCAM-1 imaging	FPRL1 binder	FPR ligand	VCAM-1 up imaging
3	COc1ccc(OC)c2[nH]c(=O)c(CCNC(=O)CC(C)C)cc12	i	i	4	-2	i
5	Cc1nc2ccc(NC(=O)N3CCOCC3)cc2s1	i	i	-3	0	i
7	CCOCCCNC(=O)c1cn(CC(C)C)c(=O)c2cc(OC)c(OC)cc12	x	x	-1	-1	x
22	COc1ccc(N2CCN(CCCNC(=O)CN3CCN(Cc4ccccc4C)C3=O)CC2)cc1	x	x	7	-7	x

Other results
cpd	SMILES	VCAM-1 inhibition	VCAM-1 imaging	FPRL1 binder	FPR ligand	VCAM-1 up imaging
31	Cc1ccc(C2CC(c3ccccc3)n3ncnc3N2)cc1 (centres undefined)	x	x	-9	-3	x
32	CC1CC(C)CN(C(=O)c2ccccc2Nc2ccc(SC(F)F)cc2)C1 (centres undefined)	x	x	-8	-9	x
33	CC(=O)C1=C(C)N=c2s/c(=C/c3ccc4c(c3)OCO4)c(=O)n2C1c1ccc(N(C)C)cc1 (centres undefined)	x	x	13	u	x
34	Cc1cccc(-n2cnc3cc(C(=O)N4CCCCC4)ccc32)c1	x	x	-2	10	x
35	COc1ccc(NC(=O)Nc2nnc(N3CCC(C)CC3)s2)cc1OC	x	x	2	3	x
36	COc1cccc(/C=N/n2c(-c3ccco3)nc3ccccc3c2=O)c1	i	i	0	-3	i
37	CN(CC(=O)Nc1cccnc1)S(=O)(=O)c1cc(Cl)ccc1Cl	i	i	0	-6	i
38	Oc1ccc(-c2nc3ncccn3c2Nc2ccc3c(c2)OCCO3)cc1	x	x	-9	-2	x
39	O=C(Cn1nnc2ccccc2c1=O)NC1CCCc2ccccc21 (centres undefined)	i	i	-1	-1	i
40	Cc1cccc(N(Cc2nnc3n2CCCCC3)C(=O)Nc2ccccc2)c1	x	x	-1	3	x
41	CCOC(=O)c1cc(C)n(-c2c(C)n(C)n(-c3ccccc3)c2=O)c1C	x	x	-9	-6	x
42	CCC(=O)N1CCN(CCN=CC2=C(O)CC(C)(C)CC2=O)CC1	i	i	-2	-4	i
43	O=C(OCC(=O)N1CCCC1)c1ccccc1OCc1ccccc1	i	i	-8	0	i
44	CCC(=O)N1CCc2cc(Br)cc(S(=O)(=O)CCC(=O)NCC3CCCO3)c21 (centres undefined)	i	i	-4	-2	i
45	COCCCNC(=O)CCc1nc2cccnc2n1Cc1ccc(OC)cc1	i	i	-5	-2	i
46	CCOc1ccccc1-c1nc(-c2ccc(NC(=O)Cc3ccccc3OC)cc2)no1	i	i	7	-9	i
47	CCOc1ccccc1NC(=O)C1CCCN(S(=O)(=O)c2cccc3nsnc23)C1 (centres undefined)	x	x	-3	-4	x
48	CCc1c(C)nc2cc(-c3ccc(OC)cc3)[nH]n2c1=O	x	x	9	7	x
49	COc1ccc(C2C(C(=O)NCc3ccco3)CCC(=O)N2c2ccc(OC)cc2)cc1 (centres undefined)	x	x	1	0	x
50	COc1ccc(C(=O)NCCn2ccc3ccccc32)c(OC)c1	i	i	-2	2	i
51	CCCC1Cc2c(sc3ncnc(N)c23)CO1 (centres undefined)	i	i	4	0	i
52	O=S(=O)(NCc1cn2ccccc2n1)c1cc(F)ccc1F	i	i	0	-7	i
53	COC(=O)c1c(-c2cccs2)csc1NC(=O)CN1CCOCC1	i	i	-5	-8	i
54	Cc1ccc(N2CCN(C(=O)c3ccccc3)CC2)c(C)c1	i	i	-1	-2	i
55	CCc1ccc(-c2nc(CN3CCC(C(=O)N4CCN(c5ccccc5)CC4)CC3)c(C)o2)cc1	x	x	-11	5	x
56	CCCOCCOC(=O)c1[nH]c2c(c1C)C(=O)CC(c1cc(OC)ccc1OC)C2 (centres undefined)	x	x	-2	0	x
57	COc1cccc(C2=NOC(C(=O)N3CCN(Cc4ccccc4)CC3)C2)c1OC (centres undefined)	x	x	-6	-6	x
58	COc1ccc(C(=O)N[C@H]2COC(C)(C)O[C@H]2c2ccccc2)cc1	x	x	3	-5	x
59	COc1cccc(-c2nc(CS(=O)(=O)CC(=O)Nc3c(C)cccc3C)c(C)o2)c1	x	x	0	2	x
60	CC(=O)[C@H]1[C@H](C#N)C[C@H]2[C@@H]3CC=C4C[C@@H](O)CC[C@]4(C)[C@H]3CC[C@@]21C	i	i	-2	2	i
61	CC(=O)Nc1ccc(S(=O)(=O)N2CCN(Cc3ccncc3)CC2)cc1	i	i	14	7	i
62	Cc1nc2nc[nH]n2c(=O)c1NC(=O)CCc1ccccc1	x	x	0	4	x
63	O=c1c2c3nc4ccccc4nc3n(CC3CCCO3)c2ncn1CCc1ccccc1 (centres undefined)	i	i	6	4	i
64	CC(C)(C)NC(=O)C(c1ccco1)N(C(=O)Cn1nnc(-c2ccc(F)cc2)n1)c1ccccc1F (centres undefined)	i	i	-4	1	i
65	CC(=O)OC1(C(F)(F)F)Oc2ccccc2NC1=O (centres undefined)	x	x	-4	1	x
66	CCc1nnc(NC(=O)CSc2nccn2-c2ccccc2)s1	x	x	-4	-3	x
67	COC(=O)c1sc(S(=O)(=O)NCc2cccs2)c(C(=O)OC)c1C	i	i	-1	-9	i
68	CCN(C)c1ccc(/C=N\n2nnnc2N)cc1	x	x	6	-1	x
69	CCCCn1c(=NC(=O)c2ccco2)c(C(=O)OCC)cc2c(=O)n3ccccc3nc21	x	x	-1	6	x
70	O=C(CSc1nc2ccccc2o1)N1CCN(c2ccc(Cl)cc2)CC1	i	i	-1	2	i
71	CCCN1C=CC(=C2C(=O)c3ccccc3C2=O)C=C1	i	i	-3	0	i
72	CCOC(=O)Cn1nc(-c2ccc(C)cc2)ccc1=O	i	i	3	2	i
73	Cn1cc(S(=O)(=O)CC(=O)Nc2ccc3c(c2)OCO3)c2ccccc21	x	x	0	4	x
74	Cc1ccccc1Cn1nc(C)c(NC(=O)c2noc3c2CCCC3)c1C	i	i	3	4	i
75	CCn1c(SCC(=O)Nc2ccc3c(c2)OCCO3)nc2c(c1=O)SC(C)C2 (centres undefined)	x	x	7	-5	x
76	COc1cccc(N2C(=O)C(CC(=O)Nc3ccccc3)N(C3CCCCC3)C2=O)c1 (centres undefined)	x	x	-4	11	x
77	O=C(CCCn1c(=S)[nH]c2ccccc2c1=O)NC1CCCC1	x	x	-3	-3	x
78	CC(C)CNS(=O)(=O)c1ccc(CCC(=O)NCc2ccco2)cc1	i	i	-5	-6	i
79	Cc1ccc(NC(=O)CSC2=C(C#N)C(c3ccc4c(c3)OCO4)CC(=O)N2)cc1C (centres undefined)	i	i	9	-2	i
80	CC(=O)Nc1cccc(NC(=O)CSc2nnc(Cc3cccn3C)n2CCc2ccccc2)c1	x	x	-1	2	x
81	COc1ccc(S(=O)(=O)N2CCC(C(=O)Nc3ccccc3C)CC2)c2cccnc12	x	x	1	-2	x
82	CCOC(=O)N1CCN(S(=O)(=O)c2cc(Br)cc3c2N(C(=O)C2CC2)CC3)CC1	x	x	-34	-10	x
83	CC(=O)CC1OC(=O)C(Br)=C1NCc1ccccc1 (centres undefined)	x	x	-3	0	x
84	CCN(CCCNC(=O)C1CCCN(S(=O)(=O)CC)C1)c1cccc(C)c1 (centres undefined)	x	x	-1	-3	x
85	COc1cccc(-n2nnc3c(=O)n(CC(=O)N4CCC(Cc5ccccc5)CC4)cnc32)c1	x	x	-3	-1	x
86	CN(C)c1cccc2c(S(=O)(=O)Nc3ccccn3)cccc12	i	i	-7	-8	i
87	COc1ccc(OC)c(NC(=O)C2CCN(S(=O)(=O)c3cccs3)CC2)c1	x	x	-6	-3	x
88	CCOC(=O)C1=C(C)N=C2SC(C)C(=O)N2C1c1ccc(OC(C)=O)c(OCC)c1 (centres undefined)	x	x	5	4	x
89	CCCn1c(=O)c2ccccc2n2c(SCc3cc(=O)n4ccsc4n3)nnc12	i	i	5	-2	i
90	COc1ccc(-c2nc(C3CCCCC3)no2)cc1OC	x	x	-5	6	x

(listing goes on)
cpd	SMILES	VCAM-1 inhibition	VCAM-1 imaging	FPRL1 binder	FPR ligand	VCAM-1 up imaging
91	O=C(c1cc2cc(Cl)cc(Cl)c2oc1=O)N1CCOCC1	i	i	2	1	i
92	O=C(O)Cc1ccc(-c2ccccc2)cc1	i	i	-1	4	i
93	COc1ccc(/C(O)=C2\C(=O)C(=O)N(CCN3CCOCC3)C2c2ccccc2OC)cc1 (centres undefined)	x	x	-6	-2	x
94	Cc1ccc(C(=O)N2CCN(C(=O)c3ccc(C)c(C)c3)C(C)C2)cc1C (centres undefined)	i	i	-2	-1	i
95	Cc1ccc(S(=O)(=O)NC(CC(=O)NCC2CCCO2)c2ccco2)cc1 (centres undefined)	x	x	0	-1	x
